High-throughput results as filed in PubChem.
Tg IFNy HTS: inhibitors of Toxoplasma gondii growth with IFN-gamma; Toxoplasma gondii growth in IFN-gamma-treated host cells; stronger effect = lower value; reference of the scale not given here; activity change, negative = inhibition, %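 (about 20 µM by stock and volumes)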; hit rate 3.8% among 69,000;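 active means below -70%; inconclusive means fit judged invalid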;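 further: host cells are HeLa cells infected with Toxoplasma gondii; parasite growth read as luciferase light; one replicate is shown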
An asterisk follows results filed as active; u = inconclusive; & = joins results of further samples; ! = not active in a repeat.

smiles	Tg IFNy HTS
c1cnc(N2CCN3C[C@H](Oc4cncnc4)C[C@@H]3C2)nc1	20.3
c1ccc2c3c([nH]c2c1)CNCC3	-1.5
C[C@@H]1CN([C@@H](C)CO)C(=O)CCCn2nncc2CO[C@@H]1CN(C)C(=O)Oc1cccc2ccccc12	-0.5
O=C(c1ccno1)N1C[C@@H]2CCN[C@@H]2C1	12.8
FC(F)(F)c1ccc(C2C3C(=NN2c2cc(Cl)ccc2Cl)C2CCN3CC2)cc1 (stereo not drawn)	139.4
O=C1/C(=C/c2ccccc2)C[C@@]2(O)C3Cc4ccc(O)c5c4[C@@]2(CCN3CC2CC2)[C@H]1O5	-76.1*!
c1ccc2c(C3=NCCCCN3)c[nH]c2c1	-5.4
O=C(O)c1cccnc1CN1CCCCC1c1cccnc1 (stereo not drawn)	-6.8
COc1ccc2c(c1)C1(CCN(C(=O)c3cnoc3C)CC1)CC2CC(=O)O (stereo not drawn)	3.0
Cc1ccc(C(C)n2ccnc2-c2coc(C)n2)cn1 (stereo not drawn)	42.1
O=C(NC1CCCCCCC1)c1cn(Cc2ccccn2)cc(C(=O)N2CCSCC2)c1=O	4.8
CN(C)c1ccc(/C=C2\CCCN=C2c2cccnc2)cc1	6.9&4.4
O=C(c1cccc(F)c1)N1CC2(CCNCC2)C1	2.1
c1ccc(CN2CC[C@H]3[C@@H]2CCN3Cc2cccs2)nc1	-13.5
c1ccc(CN2C[C@@H]3CN(c4ncccn4)C[C@@H]3C2)nc1	46.3
Cn1ccnc1C(=O)NCc1cncc2c1CCNC2	49.6
Fc1ccc(C(OCCN2CCN(C/C=C/c3ccccc3)CC2)c2ccc(F)cc2)cc1	-81.4*!
CN1C(=O)C2(CCN(Cc3cccn3C)CC2)c2ccccc21	34.3
O=c1ccc2[nH]cc(C3=CCNCC3)c2[nH]1	7.2&18.7
Nc1c(C(=O)NCc2ccccc2)c2nc3ccccc3nc2n1Cc1ccco1	21.7
CN1CCN(C(=O)Cc2ccc(O)c(Cl)c2)CC1C(=O)O (stereo not drawn)	3.2
Fc1ccc(CN2CC3(CCN(c4ncccn4)C3)C2)cc1	-22.2
C=CCN1CCN(Cc2nccs2)Cc2cccnc21	3.0
CN1CC2(CCN(Cc3cccnc3)CC2)CC1COCC1CC1 (stereo not drawn)	49.2
C#C[C@]1(O)CC[C@H]2[C@@H]3CCC4=CC(=O)CCC4=C3C=C[C@@]21CC	u
O=C(Nc1ccccc1Cl)c1c(O)c2cccnc2n(Cc2ccccc2)c1=O	24.8
O=C(Oc1ccc([N+](=O)[O-])cc1)N1CCC(C(O)(c2ccc3c(c2)OCO3)c2ccc3c(c2)OCO3)CC1	19.4
COc1ccccc1/C=C/CN(C)C(C)Cc1cc(C)ccn1 (stereo not drawn)	-3.1
Cc1nc(SCc2c(F)cccc2Cl)nc(OC(=O)N(C)C)c1C	-29.3
O=S(=O)(N[C@H]1CCO[C@]2(CCNC2)C1)C1CC1	-1.6

(list continues)
smiles	Tg IFNy HTS
CCCCOC(=O)c1ccc(NC(=O)c2cc3cccnc3n(Cc3ccc(F)cc3)c2=O)cc1	20.2
O=C(NCc1ccccc1)c1c(O)c2cccnc2n(Cc2ccccc2)c1=O	-115.6*
O=C(Nc1ccc(OC(F)(F)F)cc1)c1cc2cccnc2n(Cc2ccccc2)c1=O	119.9
COC1CC2CC1CN2Cc1cnn(C)c1 (stereo not drawn)	-41.4
O=C(Nc1ccc(OC(F)(F)F)cc1)c1cc2cccnc2n(Cc2ccc(Cl)cc2)c1=O	27.7
CN(C)CCO[C@@H]1C[C@@H]2CN(c3ncc(F)cn3)CCN2C1	-6.9
O=C(Nc1ccc(Br)cc1)c1cc2cccnc2n(Cc2ccccc2F)c1=O	62.9
COc1ccc(C(CN(C)C)C2(O)CCCCC2)cc1 (stereo not drawn)	11.8&8.7
O=C(NCC1CCCO1)c1cc2cccnc2n(Cc2ccccc2)c1=O (stereo not drawn)	26.0
CCN1C[C@]23CNC[C@@H](C[C@H]2S1(=O)=O)O3	26.3
CN1CCOCC12CCN(c1nccc(C(F)(F)F)n1)CC2	25.3
Cc1ccc(CN2CCOC3CC(COc4ccccn4)CC32)s1 (stereo not drawn)	-3.5
CN1CCC2(CCCN2C(=O)c2ccno2)CC1	47.3
Cc1ccc(N2CCO[C@@H]3CN(Cc4ccoc4)CC[C@H]3C2)nn1	11.6
Cc1noc(C)c1CN1CCO[C@H]2CN(Cc3cccs3)C[C@@H]21	324.8
COCCN1C[C@H]2CCCC(OCc3cccnc3)[C@@H]2C1 (stereo partly drawn)	-4.1
COc1ccc2c(c1)C1(CCN(C(=O)c3scnc3C)CC1)CC2CC(=O)O (stereo not drawn)	-9.3
C#CCOC(=O)C1=CCCN(C)C1	16.0&17.7
Cc1cc(C)cc(NC(=O)c2cc3cccnc3n(Cc3ccc(Cl)cc3)c2=O)c1	-24.8
OCCNC1c2ccccc2[C@H]2CNC[C@@H]12 (stereo partly drawn)	-3.6
O=C(Cc1ccncc1)N1CCCCN2[C@H](C1)[C@H](c1ccc(C#Cc3ccccc3F)cc1)[C@@H]2CO	-27.8
CC(C)[C@]1(O)[C@@H](OC(=O)c2ccc[nH]2)[C@@]2(O)[C@@]3(C)C[C@]4(O)O[C@@]5([C@H](O)[C@@H](C)CC[C@]35O)[C@@]2(O)C41C	9.6
CCN(CC)C(CN)c1ccc(OC)cc1 (stereo not drawn)	-13.2
CN(C)CCN1CCO[C@@H]2CN(Cc3ccccn3)C[C@@H]21	1.2
c1ccc2c(c1)C(OCC1CC1)[C@@H]1CNC[C@@H]21 (stereo partly drawn)	4.3
COCCNC(=O)c1cc2cccnc2n(Cc2ccccc2F)c1=O	85.2
Cc1cccc(CN2CCCC3(CCN(CC4CC4)CC3)C2)n1	-0.7
O=C(NCCC(c1ccccc1)c1ccccc1)c1cc2cccnc2n(Cc2ccccc2)c1=O	9.9
COCCO[C@@H]1C[C@@H]2CN(c3ncc(C)cn3)CCN2C1	-53.6
O=C(O)CN1CCOC2CC(COc3ccccn3)CC21 (stereo not drawn)	-3.8

Other records
smiles	Tg IFNy HTS
Cc1ccc(CN2CCN3CC(OCc4ccccn4)CC3C2)s1 (stereo not drawn)	1.7
Oc1ccc2c3c1OC1c4oc5ccccc5c4CC4(O)C(C2)N(CC2CC2)CCC314 (stereo not drawn)	15.6
C[C@@H]1CN2CCCC2CN1Cc1ccnc(N2CCCC2)n1 (stereo partly drawn)	1.2
O=C(Nc1ccc(Cl)cc1)c1c(O)c2cccnc2n(Cc2ccccc2)c1=O	44.3
CN1[C@@H]2CC[C@H]1CC(OC(=O)N1Cc3ccccc3NC1=O)C2 (stereo partly drawn)	9.5
CCn1c(CC2CCN(C(=O)C3C(C)(C)C3(C)C)CC2)n[nH]c1=O	2.8
COCC12CCCOC1CCN(Cc1ccncc1)C2 (stereo not drawn)	-0.2
CN(C)C(=O)CN1CC[C@H]2[C@@H]1CCN2c1ncc(F)cn1	-0.9
CC(C)CN1C[C@H](OCc2ccccn2)[C@@H]2OCCC[C@@H]21	17.4
CC(=O)OC1CC[C@@]2(C)C(CCC3C2CC[C@]2(C)C(C4=CC(=O)OC4)C(OC(C)=O)CC32O)C1 (stereo partly drawn)	-79.6*
O=C1NC(=O)C2(CC(C(=O)N3C[C@@H](c4ccccc4)[C@@H]4[C@H]3C3CCN4CC3)C2)N1 (stereo partly drawn)	-2.3
COCCN1C[C@@H]2OCCN(Cc3c(C)noc3C)[C@H]2C1	0.2
c1cncc(CN2C[C@@H]3COC[C@@]3(Cc3nnc(C4CC4)o3)C2)c1	-34.7
CC(c1cccc(F)c1)n1cc(C(=O)O)nn1 (stereo not drawn)	25.9
NCCc1ccc(CN2C[C@H]3CC=CC[C@H]3C2)cc1	-29.1
NCCc1c[nH]c2ccccc12	20.6
COc1ccc(NC(=O)c2c(O)c3cccnc3n(Cc3ccccc3)c2=O)cc1F	202.1
CC(C)C(=O)N1CCCc2cc(C(O)CN3CC=C(c4ccc(F)cc4)CC3)ccc21 (stereo not drawn)	-9.4
Cc1cccc(CN2CC[C@@H]3OCCN(S(=O)(=O)C4CC4)[C@@H]3C2)n1	-3.8
Cc1ccc(N2CCC3(CC2)C(=O)N(C)CCN3C)nn1	142.8
COCCN1C[C@H]2[C@H](OC)CCN(C(=O)COc3ccccc3)[C@H]2C1	-0.7
CN(Cc1ncc[nH]1)C1CCC2(CCNCC2)CC1	-23.6
Cc1ccc(OC[C@H]2CO[C@@H]3CN(Cc4cccs4)C[C@@H]23)cn1	4.9
COC(=O)[C@H]1[C@H](CO)[C@H]2Cn3c(ccc(-c4cccc(F)c4)c3=O)[C@@H]1N2Cc1ccncc1	-5.0
CC(C)CCN1C[C@H]2OCCN(c3ncc(F)cn3)[C@H]2C1	7.9
COc1ccc2c(c1)c(CCN1CCOCC1)c(C)n2C(=O)c1cccc(Cl)c1Cl	2.4
c1ccc(CCCCN2CCC(c3ccccc3)CC2)cc1	7.3&0.8
Cc1oncc1C(=O)N1CCC2(CC1)COCCN2CCN(C)C	69.6
OC1C2CCC1C(N1CCCCC1)CC2 (stereo not drawn)	6.8
c1cnc(N2C[C@H]3CN(Cc4nccs4)C[C@H]3C2)nc1	-1.1

Of the compounds above, these contain a furan ring, fused or not:
smiles	Tg IFNy HTS
Nc1c(C(=O)NCc2ccccc2)c2nc3ccccc3nc2n1Cc1ccco1	21.7
Cc1ccc(N2CCO[C@@H]3CN(Cc4ccoc4)CC[C@H]3C2)nn1	11.6
Oc1ccc2c3c1OC1c4oc5ccccc5c4CC4(O)C(C2)N(CC2CC2)CCC314 (stereo not drawn)	15.6

(list continues)
smiles	Tg IFNy HTS
O=C(C1CC1)N1C[C@H]2CN(Cc3cccnc3)C[C@@]2(C(=O)O)C1	0.6
O=C(O)c1cccnc1CN1CCCC(C(=O)c2ccccc2)C1 (stereo not drawn)	-14.3
CCSc1nnc([C@@H](N)Cc2ccccc2)o1	-9.4
Cc1cc2ncc3c(n2n1)CC1CCC3N1Cc1cn[nH]c1-c1cccs1 (stereo not drawn)	-10.0
CN1CCC(N(C)CCC2CCOCC2)CC1	0.0
CN(Cc1ccno1)C1CCC2(CCNCC2)CC1	0.8
CCC1(c2ccccc2)C(=O)N(COC)C(=O)N(COC)C1=O	-7.7
Clc1cccc(N2CCNCC2)c1	12.3&-0.2
Cc1cnc(N2CCN(CC3CC3)c3ncccc3C2)nc1	-48.7
O=C(NCCc1ccccc1)c1cc2cccnc2n(Cc2ccc(F)cc2)c1=O	120.8
CN(C)CCO[C@H]1C[C@@H]2CN(Cc3ccncc3)CCN2C1	-32.5
O=C1CN=C(c2cccc(Br)c2)c2oc3ccccc3c2N1	-0.2
CC(C)CN1C[C@H]2CN(Cc3ccncc3)C(=O)[C@@H]2C1	5.4
CN1C(=O)C(O)N=C(c2ccccc2)c2cc(Cl)ccc21 (stereo not drawn)	14.9
O=C(NCc1c(F)cccc1F)c1cc2cccnc2n(Cc2ccccc2F)c1=O	102.0
Cc1ccc(NC(=O)c2cc3cccnc3n(Cc3ccccc3)c2=O)cc1F	269.2
O=c1cccc2n1C[C@H]1C[C@@H]2CN2CCCC[C@@H]12	-2.1
Cc1cc(CN2CC[C@H]3OCC[C@@H](C(=O)N(C)C)[C@@H]3C2)no1	75.2
O=C(c1cccc(Cl)c1)C1CCCN(C2CCCCC2)C1 (stereo not drawn)	-3.2
CNC(=O)C[C@H]1COC[C@@H]2CN(Cc3cc(C)on3)C[C@@H]12	2.5
C[C@]1(O)CC[C@H]2[C@@H]3CCC4=CC(=O)CC[C@]4(C)[C@@]3(F)[C@@H](O)C[C@@]21C	12.1
Cc1cc(C(=O)N2CC[C@H]3[C@@H]2CCN3CC(C)C)no1	-15.3
Cc1cccc(CO[C@@H]2CC[C@@H]3[C@@H]2OCCN3Cc2ccsc2)n1	4.3
Cc1ccc(=O)n(CC2(O)CC3CCCC(C2)N3Cc2cccc(F)c2F)n1 (stereo not drawn)	-7.7
CCc1ccc(CN2CCC3(CCNCC3)C2)nc1	38.0
CCOC1CC2(CCN(CC(=O)O)CC2)c2cc(OC)ccc21 (stereo not drawn)	3.1
CCn1nc(C)c(CNC(C)Cc2cccc(OC)c2)c1C (stereo not drawn)	-1.1
Cc1cc(N2CCN(CC(=O)OC3CC4CCC(C3)N4C)CC2)nc2ccccc12 (stereo not drawn)	37.2
O=C(NCc1ccc(Cl)cc1)c1c(O)c2cccnc2n(Cc2ccccc2)c1=O	-98.3*
Cc1ccc(NC(=O)c2c(O)c3cccnc3n(Cc3ccccc3)c2=O)cc1C	94.1

(more compounds)
smiles	Tg IFNy HTS
Oc1ccc(CN2CCN(Cc3cccc(F)c3)CC2)c(Cl)c1	-21.2
CCCCCN1CC2CN(C(=O)CCc3cccnc3)CC2C1 (stereo not drawn)	51.5
CC(=O)Nc1cccc(NC(=O)c2cc3cccnc3n(Cc3ccc(F)cc3)c2=O)c1	211.8
CN1CCC2(CC1)COCCN(c1cccnc1)C2	46.7
c1cnc(OCC2CCC3C2OCCN3Cc2ccco2)nc1 (stereo not drawn)	25.2
Fc1cnc(N2CCC3(CC2)CNCc2ccccc23)nc1	-84.2*
COc1cccc(NC(=O)c2cc3cccnc3n(Cc3ccc(Cl)cc3)c2=O)c1	229.7
COc1ccc(CC(N)c2ccc(C)cn2)cc1OC (stereo not drawn)	40.5
CC(C)CC(N)C1(c2ccc(Cl)cc2)CCC1 (stereo not drawn)	36.8
COCc1cncc2c1CCN(S(=O)(=O)c1cn(C)cn1)C2	-16.6
CNCC(=O)c1ccc(O)c(O)c1	10.8
CC(C)CCNC(=O)c1cc2cccnc2n(Cc2ccc(F)cc2)c1=O	-25.0

The list is partial (hit frequency here may not be typical).
